# High-throughput results: PubChem BioAssay, National Center for Advancing Translational Sciences (NCATS)
# TDP1 cell CPT = growth inhibition of DT40 Tdp1-/-;hTDP1 cells with camptothecin (screen for TDP1 inhibitors). chicken DT40 Tdp1-/-;hTDP1 cells + 20 nM CPT, ATP luminescence, 48 h. Potency, µM (series often up to 46.2 µM), for the others: at the top dose activity change, negative = growth inhibition, usual class: inhibitors. hit rate 12% among 420,000; also: nearly all actives have a fitted effect of over 55% in size
#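 Cell growth measured by CellTiter-Glo luminescence after a minimum 48 h, 37 C compound exposure with 20 nM CPT in Tdp1-knockout DT40 cells stably expressing hTDP1, seeded 400/well; qHTS titration format.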
# KAT2A inh = GCN5L2 (KAT2A) acetyltransferase inhibition. Q92830. GCN5L2 HAT assay, ThioGlo1 CoA-SH fluorescence. Potency, µM (highest dose often 58.9 µM), for the others: top-dose activity change, negative = inhibition, usual class: inhibitors. hit rate 0.21% among 390,000. AID 504327
# Target sequence (Q92830 whole entry, looked up): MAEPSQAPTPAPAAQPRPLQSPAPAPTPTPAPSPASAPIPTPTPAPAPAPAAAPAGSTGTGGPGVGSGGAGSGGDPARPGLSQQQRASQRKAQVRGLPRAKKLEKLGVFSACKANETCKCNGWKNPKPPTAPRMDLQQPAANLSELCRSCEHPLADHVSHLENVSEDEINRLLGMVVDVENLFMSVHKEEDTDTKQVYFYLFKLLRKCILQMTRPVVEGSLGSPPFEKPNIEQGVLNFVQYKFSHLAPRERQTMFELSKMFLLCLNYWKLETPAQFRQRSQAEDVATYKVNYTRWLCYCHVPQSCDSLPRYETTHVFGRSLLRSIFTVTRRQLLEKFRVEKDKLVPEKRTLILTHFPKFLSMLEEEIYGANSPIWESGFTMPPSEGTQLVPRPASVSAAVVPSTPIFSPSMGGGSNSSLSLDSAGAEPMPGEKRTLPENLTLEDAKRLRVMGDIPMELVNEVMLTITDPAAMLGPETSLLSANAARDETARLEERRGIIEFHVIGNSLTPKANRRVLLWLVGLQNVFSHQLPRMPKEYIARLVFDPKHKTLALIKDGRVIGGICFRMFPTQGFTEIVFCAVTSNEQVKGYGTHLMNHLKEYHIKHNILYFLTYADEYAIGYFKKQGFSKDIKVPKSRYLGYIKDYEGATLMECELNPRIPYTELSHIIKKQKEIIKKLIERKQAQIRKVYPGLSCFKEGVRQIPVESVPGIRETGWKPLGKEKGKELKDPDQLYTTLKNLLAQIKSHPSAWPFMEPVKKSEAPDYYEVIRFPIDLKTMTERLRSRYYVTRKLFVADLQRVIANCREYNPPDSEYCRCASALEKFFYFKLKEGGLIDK
#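 Titration-based screen in which CoA formation is detected via maleimide probe ThioGlo1 (50uM) turning fluorescent on thiol reaction; substrates H3(1-25) 75uM and acetyl-CoA 70uM, GCN5L2 20nM, 20 min incubation at room temperature.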
# Active calls of the source: *; ? = inconclusive; & = joins results of further samples. Calls follow the shape of the dose curve; as a rule, active = well fitted curve in the direction sought with a large enough effect; inconclusive = small, poorly fitted or top-dose-only effect, or another doubt; inactive = no such curve, though single readings can be large; an effect the other way counts as inactive or inconclusive. % is scaled to controls: 0 for no effect and ±100 for the full control effect; potency is read from the fitted curve at half-maximal effect. The list is partial; most or all hits stand in other tables.
# Values run as follows: TDP1 cell CPT	KAT2A inh
1. COc1ccccc1Nc1nc(-c2cccc(N3C(=O)c4ccccc4C3=O)c2)cs1
    -11%	24%
2. CC1CCC(=NNC(=O)Cc2ccccc2)CC1 (stereo unspecified)
    6%	-4%
3. CCn1c(CNc2ccc(OC)cc2)nnc1SCC(=O)c1ccc(OC)cc1
    -19%	-5%
4. O=C(NNC(=O)c1cc(-c2ccncc2)nc2ccccc12)Nc1ccc(F)cc1
    ?	2%
5. Cc1ccc(C)c(NC(=O)CN(C)C(=O)CC2OC(=O)c3ccccc32)c1 (stereo unspecified)
    ?	-4%
6. O=C1C(Cl)=C(NCC2CCCO2)C(=O)N1c1cccc(Cl)c1Cl (stereo unspecified)
    -10%	20%
7. Cc1ccc(OCC(=O)N2CCc3ccccc3C2)c(Br)c1
    -18%	-1%
8. Cc1ccccc1Nc1nc(N)nc(COC(=O)c2cccc(S(=O)(=O)N(C)c3ccccc3)c2)n1
    ?	-9%
9. COc1cc2c(cc1NC(=O)c1ccc3c(c1)OCO3)oc1ccccc12
    ?	0%
10. O=S(=O)(NCc1ccccc1Cl)c1cccs1
    4%	-13%
11. COc1cc(CNCC2CCCO2)ccc1OCC(N)=O (stereo unspecified)
    -2%	-1%
12. C=CCOc1ccc(/C(CC)=N/O)c(OC)c1
    5%	-5%
13. C/C(N)=C(/C#N)C(=O)CSc1nnc(-c2ccccc2Br)o1
    -4%	-20%
14. COc1ccc(/C=N/NC(=O)CCNc2n[nH]c(=O)[nH]c2=O)c(OC)c1
    -2%	-7%
15. CCCOc1ccc(Cc2c(O)nc(N)[nH]c2=O)cc1C
    0%	-4%

# Continued.
# Values run as follows: TDP1 cell CPT	KAT2A inh
16. CCOC(=O)c1c(C)nc2c(c1-c1ccccc1)C(=O)c1ccccc1-2
    ?	3%
17. CCCNC(=O)N1c2ccccc2Sc2ccccc21
    -10%	-3%
18. C=CCn1c(=N)c(S(=O)(=O)c2ccc(C)c(C)c2)cc2c(=O)n3ccccc3nc21
    ?	-1%
19. Cc1nn(-c2ccccc2)c(Cl)c1/C=C/C(=O)c1ccccc1
    ?	-5%
20. COc1ccc(NC(=O)CN(C)C(=O)C(C)N2C(=O)c3ccccc3C2=O)cc1 (stereo unspecified)
    7%	-4%
21. COc1cc(/C=N/NC(=O)c2c(-c3ccccc3)noc2C)cc(OC)c1OC
    ?	-2%
22. CCCCC1CC(CSC(=N)N)OC1=O (stereo unspecified)
    ?	3%
23. COc1cccc(NC(=O)CN2C(=O)C3(OCCCO3)c3ccccc32)c1
    -3%	-3%
24. CCN(CC)CC(=O)Nc1sc(C)c(C)c1C(=O)c1ccc(C)cc1
    ?	-6%
25. Cc1c(C(=O)N2CC3(CC(c4cccc(NC(=O)[C@H]5CCC(=O)N5)c4)=NO3)C[C@@H]2C(N)=O)cc([N+](=O)[O-])cc1[N+](=O)[O-] (stereo partly specified)
    -7%	3%
26. COC(=O)c1ccc(CNC(=O)COC(=O)c2cc(Cl)nc(Cl)c2)cc1
    -30%	-3%
27. O=C(N/N=C/c1ccc(O)cc1)c1csc2c1CCCC2
    16%	-5%
28. O=c1c2nnn(-c3ccc(Cl)cc3)c2ncn1Cc1ccccn1
    -2%	-10%
29. CS(=O)(=O)c1ccc2nc(N)sc2c1
    -13%	-18%
30. O=C(NCc1cccc(C(F)(F)F)c1)N1CCN(C(=O)c2ccccc2)CC1
    -14%	1%

# (listing goes on)
# Values run as follows: TDP1 cell CPT	KAT2A inh
31. COc1ccc(S(=O)(=O)N2CCCC(C(=O)NCCN3CCOCC3)C2)cc1C (stereo unspecified)
    -7%	-19%
32. CC1CC(C)CN(S(=O)(=O)c2ccc(C(=O)Nc3nnc(C4CC4)o3)cc2)C1 (stereo unspecified)
    ?	-1%
33. C/C(CC(=O)Nc1ccc(Cl)cn1)=N\NC(=O)Cc1cccs1
    0%	-3%
34. CC1CCC(NC(=O)C(=O)Nc2ccc3c(c2)OCO3)CC1 (stereo unspecified)
    ?	-8%
35. COc1ccccc1-c1cc(C(=O)Nc2cc(Cl)ccc2O)no1
    -7%	-4%
36. Cc1cc(C)nc(-n2nc(C)c(C3(O)C(=O)Nc4ccccc43)c2N)n1 (stereo unspecified)
    -13%	-5%
37. Cc1ccc(C)c(NC(=O)c2cc3ccccn3n2)c1
    -23%	-23%
38. Cc1ccccc1NC(=O)/C(=C/c1cccs1)NC(=O)c1ccco1
    -12%	15%
39. NS(=O)(=O)c1ccc(CCNC(=O)CN2CCN(S(=O)(=O)c3ccccc3F)CC2)cc1
    ?	-5%
40. CCN(CC)CC(=O)NN(Cc1ccccc1)c1ccccc1
    -7%	-3%
41. Cc1nn(C)c(C(=O)NC(=S)Nc2ccccc2Br)c1Cl
    5%	-7%
42. Cc1ccsc1/C=N/NC(=O)c1ccc2ccccc2c1
    15µM*	-25%
43. Cc1cc(=O)[nH]c(NCCO)n1
    27%	-9%
44. CN1CCC(=C(c2ccc(Cl)cc2)c2ccccn2)CC1
    -29%	-2%
45. CCCCn1c(N)c(N(CCOC)C(=O)c2ccc(Br)s2)c(=O)[nH]c1=O
    -2%	-1%

# Next part, starting with the last 2 of the part before.
# Values run as follows: TDP1 cell CPT	KAT2A inh
44. CN1CCC(=C(c2ccc(Cl)cc2)c2ccccn2)CC1
    -29%	-2%
45. CCCCn1c(N)c(N(CCOC)C(=O)c2ccc(Br)s2)c(=O)[nH]c1=O
    -2%	-1%
46. CCN(CC)C(=O)C1CCN(S(=O)(=O)c2c(C)noc2/C=C/c2cccc(OC)c2)CC1
    ?	-3%
47. Cc1nc(NC(=O)c2cc3c(C)nn(-c4ccccc4)c3s2)sc1C(=O)Nc1ccccc1
    ?	-12%
48. CC(=O)c1cc2c(s1)-c1cc(F)ccc1OC2
    4%	?
49. C=CCSc1nnc(-c2cnn(-c3ccccc3)c2-n2cccc2)n1C
    -10%	-2%
50. CC(OC(=O)CCC(=O)c1cccs1)C(=O)Nc1ccccc1[N+](=O)[O-] (stereo unspecified)
    9%	-10%
51. CC(=O)c1cccc(NC(=O)c2ccc3nc(Cc4ccccc4)oc3c2)c1
    ?	0%
52. COc1ccc(CN2CCC(=O)N(CCO)CC2)cc1OC
    -3%&12%	0%
53. NC1=NC[C@@H](Cc2ccc(O)cc2)N1CCc1cc(C(F)(F)F)cc(C(F)(F)F)c1
    ?	-5%
54. COc1cc(CCc2ccc3c(c2)OCO3)oc(=O)c1
    -21%	0%
55. CC(C)=C1SC(N2CCN(c3cccc(Cl)c3)CC2)=NC1=O
    ?	-3%
56. Cc1ccc(OCC(=O)NNC(=O)CSc2nnc(-c3ccc(C)cc3)n2C)cc1
    -20%	1%
57. CC(=O)c1ccc(N=C2SCCCN2C(=O)C2CCCCC2)cc1
    -9%	-11%
58. Cc1ccc(NC(=O)N2CCC(NC(=O)c3cccc(F)c3)CC2)cc1
    -3%	-4%
59. Cc1ccc(S(=O)(=O)N2CCCCC2)cc1NC(=S)NC(=O)c1ccco1
    ?	-2%
60. CN(C)C(=O)c1ccccc1Sc1cc(Cl)ccc1Cl
    -22%	-10%

# An excerpt of these results, as labelled records:
45) CCCCn1c(N)c(N(CCOC)C(=O)c2ccc(Br)s2)c(=O)[nH]c1=O
  TDP1 cell CPT: -2%; KAT2A inh: -1%

46) CCN(CC)C(=O)C1CCN(S(=O)(=O)c2c(C)noc2/C=C/c2cccc(OC)c2)CC1
  TDP1 cell CPT: ?; KAT2A inh: -3%

# Single records, from the list above.
# Shown for `O=S(=O)(NCc1ccccc1Cl)c1cccs1` : TDP1 cell CPT: 4%; KAT2A inh: -13%
# Shown for `COc1cc(/C=N/NC(=O)c2c(-c3ccccc3)noc2C)cc(OC)c1OC` : TDP1 cell CPT: ?; KAT2A inh: -2%
# Shown for `Cc1ccc(OCC(=O)N2CCc3ccccc3C2)c(Br)c1` : TDP1 cell CPT: -18%; KAT2A inh: -1%

# Continued:
# Values run as follows: TDP1 cell CPT	KAT2A inh
61. CC(C)CN(C(=O)CSc1nnnn1C)C1CCS(=O)(=O)C1 (stereo unspecified)
    3%	-3%
62. CCOc1ccc(CCN2C(=O)CCC2(C)C(=O)NC(C)CC)cc1OCC (stereo unspecified)
    -27%	0%
63. Cn1ncc2c(=O)n(CC(=O)NC34CC5CC(CC(C5)C3)C4)cnc21
    8%	-19%
64. O=C(CNC(=O)c1cccc(F)c1)OCCOc1cccc(Cl)c1
    -19%	0%
65. CCOc1ccc(CNC23CN4CN(CN(C4)C2)C3)cc1
    ?	-1%
66. CCNC(=O)c1ccc2nc(CCc3ccccc3)oc2c1
    -23%	-12%
67. CC(=O)NCc1ccc(S(=O)(=O)N/N=C/c2ccccc2)cc1
    8%	1%

# Random excerpt: 6 compounds from above
# Values run as follows: TDP1 cell CPT	KAT2A inh
1. COc1ccccc1Nc1nc(-c2cccc(N3C(=O)c4ccccc4C3=O)c2)cs1
    -11%	24%
41. Cc1nn(C)c(C(=O)NC(=S)Nc2ccccc2Br)c1Cl
    5%	-7%
31. COc1ccc(S(=O)(=O)N2CCCC(C(=O)NCCN3CCOCC3)C2)cc1C (stereo unspecified)
    -7%	-19%
55. CC(C)=C1SC(N2CCN(c3cccc(Cl)c3)CC2)=NC1=O
    ?	-3%
9. COc1cc2c(cc1NC(=O)c1ccc3c(c1)OCO3)oc1ccccc12
    ?	0%
16. CCOC(=O)c1c(C)nc2c(c1-c1ccccc1)C(=O)c1ccccc1-2
    ?	3%
